NPYLR7 agonist – mosquito NPYLR7 agonism | HEK293T NPYLR7/Galpha15, GCaMP6s calcium fluorescence | 270,000 compounds, 0.15% hits | activation, % at 10 µM; in the data active means activation above about 40%;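 further: 0% = vehicle and 100% = reference agonist at the receptor; some compounds past the cut are filed as inactive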
NPYLR7 agonist max-min – also measured in NPYLR7 agonist; calls as there; activation, %; measured here: Max-Min RFU normalised activation; some inactives read as strong as hits;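 span of the calcium signal over five minutes; 0% = vehicle and 100% = native peptide agonist; compound fluorescence can raise it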
* = called active by the depositor; & = joins results of further samples.

SMILES	NPYLR7 agonist	NPYLR7 agonist max-min
CN(Cc1ccc(C(F)(F)F)cc1)Cc1cc2c(cc1O)OCO2	8.6	12.9
O=c1[nH]nc(CCNc2ccccc2)n1-c1ccc2c(c1)OCO2	8.1	6.3
O=C(NCC1Cc2cc(Oc3ccccc3)ccc2O1)c1cccc([N+](=O)[O-])c1 (stereo not given)	0.2	-0.1
Cn1ncc2c(NCc3n[nH]c4c3CCCCC4)nc(-c3cccnc3)nc21	5.7	2.2
COc1cc(OC)cc(C(=O)N2CCSC23CCN(C(=O)c2ccc([N+](=O)[O-])cc2Cl)CC3)c1	9.7	16.5
CCOC(=O)c1c(NC(=O)c2c(F)ccc(F)c2F)c(-c2ccc(OC)c(OC)c2)cn1Cc1ccccc1	6.7	-8.2
CC(C)(C)c1cc2nc(-c3ccc(F)cc3)cc(C(=O)N3CCc4ccccc4C3)n2n1	-3.3	2.8
Cc1cccc(N2C(=O)CSC2c2cccc(NS(=O)(=O)c3ccc(Br)cc3)c2)c1 (stereo not given)	7.9	11.9
O=C(c1ccc(O)c(Cl)c1)N1CCN(c2cnccn2)CC1	-0.1	-1.2
Brc1ccc(-c2ccc(CN3CCNCC3)s2)cc1	3.7	1.1
CN(Cc1ccc2nccnc2c1)Cc1cc2n(n1)CCCNC2	2.4	-1.1
CCc1cccc2c(C(CC(=O)NCCCOC)c3cccc(F)c3)c[nH]c12 (stereo not given)	21.0	30.7
Cc1c(C(=O)Nc2nc3c(s2)CN(C(=O)OC(C)(C)C)CC3)oc2ccc(F)cc12	1.5	-1.9
CC(=O)Nc1ccc(Cl)c(C(=O)NC[C@H]2C[C@H]3C=C[C@H]2C32CC2)c1	32.4	15.9
COc1cc(C=NNC(=O)c2cc(-c3ccc(Cl)cc3)n[nH]2)cc(OC)c1OC	0.4	-3.7
COc1ccc(C(Nc2cccc(F)c2C#N)c2nccn2C)cc1 (stereo not given)	1.1	0.3
O=C1CCC(NS(=O)(=O)c2ccccc2-c2ccccc2)CN1 (stereo not given)	4.1	0.2
O=C(Nc1ccc(OCc2ccccc2)cc1)C1CC12c1ccccc1-c1ccccc12 (stereo not given)	3.8	7.8
CC(C)C(O)Cc1ccccc1Br (stereo not given)	9.1	6.2
COc1ccc(NC(=O)N(Cc2nc(C(=O)N3CCN(C/C=C/c4ccccc4)CC3)cs2)C(C)C)cc1	10.2	12.1
Cc1ccc(-n2c(=O)c3ccccc3n3c(SCC4CCCO4)nnc23)cc1 (stereo not given)	2.5	1.6
CCOC(=O)C(C#N)C1(c2ccsc2)CCCCC1 (stereo not given)	-9.1	-8.7
COc1ccc(CN(Cc2ccc(F)cc2)Cc2nc(C(=O)NCC3CC3)co2)cc1	-7.6	-2.9
CC(C)NC(=O)Nc1ccc(N(C)C)c(CN(C(=O)C(C)C)C(C)C)c1	-4.5	4.3
Cc1ccc(C)c(NC(=O)CSc2nc(=O)n(Cc3cccnc3)c3c2CCCC3)c1	-3.6	-4.0
CCOC(=O)C1CCN(Cc2nc3sc(C)c(C)c3c(=O)[nH]2)CC1	10.7	3.4
COc1ccc(NC2CCCN(C(=O)CSC)C2)cc1OC (stereo not given)	1.4	-2.7
CCOC(=O)CC1CCCCN1Cc1nnc(C)s1 (stereo not given)	2.7	2.8
O=C(Nc1nnc(CCSc2cc(Cl)ccc2Cl)s1)c1cccs1	-9.5	-14.7
Cc1ccc(C2C(C#N)C(=N)SC(=N)C2C#N)o1 (stereo not given)	11.6&14.7	5.8&11.1
CC1CSC(N(C(=O)c2cccc(S(=O)(=O)N3CCCCC3)c2)c2ccc(Cl)cc2)=N1 (stereo not given)	-2.6	-2.2
CCOc1ccccc1NC(=O)c1c(NC(=O)c2ccccc2Cl)sc2c1CCCC2	1.5	4.0
N=c1c2c(-c3ccccc3)c(-c3ccccc3)oc2ncn1CCCO	-8.4	-15.2
O=S(=O)(Cc1noc(-c2ccccc2)n1)c1cccc(Cl)c1	5.4	5.3
NC1CC(=O)N(C2CCCCCC2)C1 (stereo not given)	-2.5	-5.0
CC1(Cc2cccc(C(F)(F)F)c2)C(=O)Nc2ccc(OC(F)(F)F)cc21 (stereo not given)	1.8	0.9
COc1cc(C(=O)NC2CCCCC2C(C)(C)C)ccc1OCC(N)=O (stereo not given)	-7.6	-5.8
Cc1cn2c3c(=O)n(Cc4cccc(Cl)c4)c(=O)n(C)c3nc2n1CCO	8.6	6.9
CCCN1CCC(C(=O)NC(c2ccc(Cl)cc2)c2ccccn2)CC1 (stereo not given)	11.8	9.5
COc1ccc(-c2noc(-c3c(SC)nn(CC(=O)NCc4ccc(C)cc4)c3N)n2)cc1OC	-9.8	-20.0
CCOc1ccccc1C1c2[nH]c3ccccc3c2CCN1C(=O)c1cccc(C)n1 (stereo not given)	-1.5	-6.1
CCOC(=O)CSc1nnc(-c2ccccc2)c2sc(C)nc12	0.1	-2.4
COC(=O)Cn1ccc(NC(=O)CNC(=O)c2ccccc2)n1	-6.4	-5.8
CC(C)c1nccc(C(=O)NCc2nncn2C2CCCCC2)n1	-1.3	-4.8
CCOCCCn1c(C)c(C)n2c3c(=O)n(Cc4ccc(C)cc4)c(=O)n(C)c3nc12	11.4	12.6
CC(C)c1cc(=O)[nH]c(-n2nc(-c3cccs3)cc2NC(=O)c2ccc(Br)o2)n1	-4.0	-6.2
CCCNC(=O)C1(C)CCCN(Cc2ccccc2C#N)C1 (stereo not given)	5.9	-1.6
CCN1CCCC(NC(=O)c2nnn(-c3cccc(OC)c3)c2C)C1 (stereo not given)	-0.3	2.1
CC(=O)c1cccc(OCc2cc(C(=O)N3CCCCCCC3)n[nH]2)c1	5.0	3.6
COc1nccnc1-c1cccc(CN2CCOCC2)c1	10.5	7.6
COc1cc(CNc2ccc3ncc(-c4cnn(Cc5ccccc5)c4)n3n2)cc(OC)c1OC	-2.4	-6.6
O=C(Cc1cc2c(cc1Cl)OCCO2)N1CCOC(C(F)(F)F)C1 (stereo not given)	6.5	2.8
O=C(Cn1c(=O)n(-c2ccc(F)cc2F)c(=O)c2ccc(Cl)cc21)NCc1ccccn1	-12.0	-6.0
CC1CCN(C(=O)c2cc(-c3ccccc3)nc3cc(C(C)(C)C)nn23)CC1	9.0	14.8
Cc1nc2ccc(C(=O)NCC(C)C)cc2nc1C	-6.9	-7.1
O=C(COC(=O)c1ccccn1)NC(=O)c1ccccc1	12.4	7.9
COc1cccc(CN2C(=O)C3(SCCN3C(=O)NCc3ccccc3)c3ccccc32)c1 (stereo not given)	3.0	4.7
Cc1ccc(C(=O)N2CCOC(Cc3ccccc3)C2)c(Cl)n1 (stereo not given)	-1.0	-0.1
Cc1cncc(C(=O)N2CCC(Cn3cc(-c4ccsc4)nn3)CC2)c1	-0.2	-0.7
O=C(c1cccs1)N(CCN1CCOCC1)Cc1nccn1Cc1ccccc1F	4.5	13.5
Additional entries follow.
SMILES	NPYLR7 agonist	NPYLR7 agonist max-min
O=C(CSc1nnnn1Cc1cccs1)N1CCNC1=O	8.4	15.3
COc1cccc(CNC(=O)c2c(O)nc3sccn3c2=O)c1	-4.1	7.0
CC1CN(C(=O)CCN2CCc3sccc3C2c2cccc(F)c2)CCN1C(=O)c1ccc(Cl)c(Cl)c1 (stereo not given)	13.2	3.0
COC(=O)NC1(C(=O)Nc2ccc(OC(C)C)cc2C)CCCC1	-1.8	-8.4
C=CCn1c(SCC(=O)N(CC)CC(=O)NC2CCS(=O)(=O)C2)nc2ccccc2c1=O (stereo not given)	9.4	9.1
Cc1nnc2n1CCN(C(=O)c1cn(-c3ccccc3)nn1)CC2	0.0	-4.8
COc1ccc(S(=O)(=O)c2cn(C)c3cc(N4CCC(C)CC4)c(F)cc3c2=O)cc1	-13.0	-16.9
CCN(CC)C(CNC(=O)CN1CCSC1=O)c1cccc(OC)c1 (stereo not given)	8.3	5.2
O=C(Nc1cccc(Cl)c1Cl)N1CCC2(CC1)SCCN2C(=O)c1ccc(Br)cc1	18.9	16.2
O=S(=O)(c1cccc2nonc12)N1CCCc2ccccc21	4.8	2.2
CC(C)N1CCC(C)(C(=O)Nc2nccc3cccnc23)C1 (stereo not given)	0.4	2.5
Cc1ccc(N2CCN(C(=O)c3ccccc3N3CCC(NC(=O)Cc4ccccc4)CC3)CC2)cc1C	-0.7	-0.2
CCOC(=O)c1cc(-c2cccc(NC(=O)Cc3ccc(F)cc3)c2)n(-c2ccc(OC)cc2)n1	23.3	10.0
c1ccc(-c2nc(CSC3=NCCCN3)cs2)cc1	2.0	1.2
O=C(O)c1cccc(NC(=O)c2ccc(Cl)c(S(=O)(=O)N3CCCCCC3)c2)c1	-3.8	-11.4
COCCN1C(=O)N(Cc2cccnc2)C(=O)C12CCN(C/C(C)=C/c1ccco1)CC2	-5.7	-7.7
COc1ccc(CNC(=O)Cn2cnc3c([nH]c4ccc(C)cc43)c2=O)cc1	4.7	1.0
CC(=O)Nc1cc(-c2cccc(N)c2)cn2c(-c3ccc(C(C)=O)cc3)cnc12	-5.9	-9.8
Cc1nc2ncccc2cc1C(=O)NCc1cccnc1Oc1ccccc1	2.2	0.8
COc1ccccc1CCNC(=O)c1cncn1-c1ccc(-c2cc(C(F)(F)F)cc(C(F)(F)F)c2)cc1	14.1	9.8
O=C(NC(c1ccccc1)c1ccsc1)C1CCNCC1 (stereo not given)	6.8	-1.7
O=C(c1ccco1)N1CCN(C(C(=O)N2CCCCC2)c2ccccc2)CC1 (stereo not given)	6.4	6.0
CCn1cncc1CN1CCC(Cn2cc(CO)nn2)CC1	-0.7	-3.5
CN1CCC(CNc2ccccc2S(=O)(=O)C(F)(F)F)C1 (stereo not given)	5.9	4.9
OCC1(Cc2cccc(C(F)(F)F)c2)CCN(Cc2ccnc3ccccc23)CC1	0.0	-4.4
Cc1c(C(=O)N2CCC(C(N)=O)C2)cnn1C1CCS(=O)(=O)C1 (stereo not given)	3.6	1.4
CCOC(=O)[C@@H]1CN2CCN(C(=O)N(C)C)C[C@@H]2[C@H]1c1ccccc1	-2.1	2.7
S=c1[nH]nc(C2(c3ccc(Cl)cc3)CCC2)n1-c1cccc2ccccc12	-0.6	-8.6
OCC[n+]1cccc2ccccc21	6.2	6.1
COc1ccc(CCNC(=O)Cn2ncn3nc4c(c3c2=O)CCCC4)cc1OC	-3.2	-7.4
O=C(Oc1coc(CSc2ncccn2)cc1=O)c1ccc(Cl)c([N+](=O)[O-])c1	-11.8	-10.6
O=C(O)C1CC(=O)N(CCn2ccnc2)C1 (stereo not given)	3.9	1.2
CC(c1cccc(-c2nc3ccccc3cc2CO)c1)N1CCCC1 (stereo not given)	1.1	0.0
C#CCN(C)c1nc(-c2ccc(OC)cc2)ncc1C(=O)OCC	-6.6	-8.3
COc1ccc(C2=NNC3=Nc4ccccc4OC3C2)cc1 (stereo not given)	-5.7	-5.0
Cc1ccc(NCc2cccnc2)cc1N1CCOC1=O	-23.9	-23.7
O=C(NC(c1ccc(Cl)cc1)c1ccsc1)C1CCCO1 (stereo not given)	2.7	2.1
NC(=S)N(c1ccccc1)c1ccccc1	-1.6	-2.5
Cc1cc(O)c(CNC2(c3ccc(F)cc3)CCOCC2)cc1C	0.1	-0.4
COCc1cnc2c(c1SCC(N)=O)c(=O)n(C)c(=O)n2C	2.2	10.5

Laid out differently: results already given.
The line under a structure holds: NPYLR7 agonist | NPYLR7 agonist max-min
- O=C(NC(c1ccccc1)c1ccsc1)C1CCNCC1 (stereo not given)
 : 6.8 | -1.7
- O=C(c1ccco1)N1CCN(C(C(=O)N2CCCCC2)c2ccccc2)CC1 (stereo not given)
 : 6.4 | 6.0
- CCn1cncc1CN1CCC(Cn2cc(CO)nn2)CC1
 : -0.7 | -3.5
- CN1CCC(CNc2ccccc2S(=O)(=O)C(F)(F)F)C1 (stereo not given)
 : 5.9 | 4.9
- OCC1(Cc2cccc(C(F)(F)F)c2)CCN(Cc2ccnc3ccccc23)CC1
 : 0.0 | -4.4
- Cc1c(C(=O)N2CCC(C(N)=O)C2)cnn1C1CCS(=O)(=O)C1 (stereo not given)
 : 3.6 | 1.4
- CCOC(=O)[C@@H]1CN2CCN(C(=O)N(C)C)C[C@@H]2[C@H]1c1ccccc1
 : -2.1 | 2.7
- S=c1[nH]nc(C2(c3ccc(Cl)cc3)CCC2)n1-c1cccc2ccccc12
 : -0.6 | -8.6
- OCC[n+]1cccc2ccccc21
 : 6.2 | 6.1
- COc1ccc(CCNC(=O)Cn2ncn3nc4c(c3c2=O)CCCC4)cc1OC
 : -3.2 | -7.4
- O=C(Oc1coc(CSc2ncccn2)cc1=O)c1ccc(Cl)c([N+](=O)[O-])c1
 : -11.8 | -10.6
- O=C(O)C1CC(=O)N(CCn2ccnc2)C1 (stereo not given)
 : 3.9 | 1.2
- CC(c1cccc(-c2nc3ccccc3cc2CO)c1)N1CCCC1 (stereo not given)
 : 1.1 | 0.0
- C#CCN(C)c1nc(-c2ccc(OC)cc2)ncc1C(=O)OCC
 : -6.6 | -8.3
- COc1ccc(C2=NNC3=Nc4ccccc4OC3C2)cc1 (stereo not given)
 : -5.7 | -5.0
- Cc1ccc(NCc2cccnc2)cc1N1CCOC1=O
 : -23.9 | -23.7
- O=C(NC(c1ccc(Cl)cc1)c1ccsc1)C1CCCO1 (stereo not given)
 : 2.7 | 2.1

Further compounds follow:
SMILES	NPYLR7 agonist	NPYLR7 agonist max-min
Cc1cccc(NC(=O)c2cccc(S(=O)(=O)Nc3ccccc3C(=O)O)c2)c1	-19.3	-26.8
Cc1cc(C(=O)NCc2ccc(NC(=O)NC(C)C)cc2)nn1C	-3.4	-8.3
CCOC(=O)N1CCN(C(=O)CC(c2ccc(OC)cc2OC)c2c[nH]c3ccccc23)CC1 (stereo not given)	6.5	14.2
CCc1nc2ccc(C(=O)N3CCN(C(=O)c4ccco4)CC3)cn2c1N(CC)C(C)=O	-5.3	-11.7
CC1CCCC(N2CCC(N3CCN(CCO)CC3)CC2)C1 (stereo not given)	5.9	3.3
CCc1c(C)nc(-n2nc(C)cc2C)n(CC(=O)N2CCCCC2)c1=O	1.8	-0.2
CC(Cn1cccn1)NS(=O)(=O)c1cc(Cl)cc(Cl)c1 (stereo not given)	6.5	5.2
COCc1nnc2sc(/C=C/c3ccc(OC)cc3)nn12	-0.5	0.1
Cc1ccc(C(=O)c2c(N)c(C(=O)Nc3ccccc3)c3ccccn23)cc1C	-3.9	-9.3

Screening results from PubChem.

Only part of the results is shown; the hit share may differ from the screen's.
